Screening results as filed in PubChem BioAssay.
HSV augment: HSV replication enhancement | 220,000 tested, 0.005% active | HSV replication augmentation in cells, fold increase | maximum fold increase | AID 1956;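 active = peak rise of 1.5-fold or more in the series; tested in PC3 cells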;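 note: first round at 10 µM; read as green reporter fluorescence; hits show the peak of a series up to 25 µM; 1 = signal of infected wells without compound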
Insulin prom inh: TRM-6 insulin promoter activity inhibition; TRM-6 cells (human fetal islet line), insulin promoter-eGFP reporter, imaging; reporter expression induced with tamoxifen; 130,000 tested, 0.9% active; inhibition, % at 2 µM; AID 1273;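 active = inhibition above the mean plus 3 SD, with well images judged a real hit on visual review, cut at about 60% in these data, passing the limit was not always enough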
RGS16-Gao HTS: regulators of human RGS16-Galphao interaction. O15492+P09471. bead-based flow cytometry RGS16-Galphao binding, fluorescence; actives lie on both sides. binding response (% of control), % at 10 µM. 220,000 tested, 0.38% active;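 active = below 25% or above 175%, edge rows of some plates excepted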;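 note: Galphao activated by GDP with aluminum fluoride before binding; 100% = wells without compound and 0% = beads without RGS; some results beyond the cut were filed as inactive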
Target sequence (O15492 whole entry, looked up): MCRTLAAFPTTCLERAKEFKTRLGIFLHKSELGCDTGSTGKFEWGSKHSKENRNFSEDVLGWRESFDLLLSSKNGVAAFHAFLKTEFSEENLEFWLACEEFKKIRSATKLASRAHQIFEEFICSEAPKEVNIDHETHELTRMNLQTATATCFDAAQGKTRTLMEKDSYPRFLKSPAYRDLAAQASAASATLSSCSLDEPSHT
Target sequence (P09471 whole entry, looked up): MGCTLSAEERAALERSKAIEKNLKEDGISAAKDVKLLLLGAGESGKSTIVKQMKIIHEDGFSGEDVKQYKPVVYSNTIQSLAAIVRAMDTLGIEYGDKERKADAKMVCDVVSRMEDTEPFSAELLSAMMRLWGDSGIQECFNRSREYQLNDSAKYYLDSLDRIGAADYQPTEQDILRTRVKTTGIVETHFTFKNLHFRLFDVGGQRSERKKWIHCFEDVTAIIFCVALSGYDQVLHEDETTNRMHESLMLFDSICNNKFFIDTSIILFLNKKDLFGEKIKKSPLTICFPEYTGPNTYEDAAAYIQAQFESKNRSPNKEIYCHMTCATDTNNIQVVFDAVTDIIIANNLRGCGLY
GALR2 agonist: activates the human galanin receptor 2 | O43603 | GALR2-expressing cells, agonist activation read-out | activation, %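 (tested at 5 µM)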 | 140,000 tested, 0.48% active;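 active = above mean plus 3 SD of all compounds, about 5% in these data, not always enough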;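 note: 0% = vehicle buffer wells and 100% = reference agonist at full effect; tested in CHO reporter cells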
Target sequence (O43603 whole entry, looked up): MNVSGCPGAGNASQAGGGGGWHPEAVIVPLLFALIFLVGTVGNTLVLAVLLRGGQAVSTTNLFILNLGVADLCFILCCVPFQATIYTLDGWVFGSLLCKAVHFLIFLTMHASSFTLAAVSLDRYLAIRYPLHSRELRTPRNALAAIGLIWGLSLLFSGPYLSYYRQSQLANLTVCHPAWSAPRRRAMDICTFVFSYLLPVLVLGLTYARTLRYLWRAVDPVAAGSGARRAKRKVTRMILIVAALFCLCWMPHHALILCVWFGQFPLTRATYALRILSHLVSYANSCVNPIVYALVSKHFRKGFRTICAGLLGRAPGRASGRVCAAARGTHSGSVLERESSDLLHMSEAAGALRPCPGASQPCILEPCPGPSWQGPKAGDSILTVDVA
PKD1 inh: inhibitors of human PKD1 kinase | 200,000 tested, 0.056% active | inhibition, %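 (about 10 µM by stock and volumes)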 | Q15139 | PKD1 kinase fluorescence polarization assay;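 active = inhibition of 50% or more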;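 note: controls were vehicle for no effect and a reference inhibitor for full effect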
Insulin prom inh cell count: second read-out of Insulin prom inh, no call of its own (marks repeat the call); normalized cell count, %; measured here: cell count, toxicity; reference of the scale not given here;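 cells exposed to compound for 48 h; stained nuclei by imaging scaled within each plate; lower means fewer cells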
HSV augment primary fold: recorded beside HSV augment, whose call it bears; fold increase; compound at 10 µM; measured here: primary screen fold increase 10 uM; tested in PC3 cells;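 GFP signal in the first replicate; 1 = infected wells without compound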
Numbers without * were called inactive; i = inactive; / = no result given; & = joins results of further samples.

Preview, four compounds:
SMILES	HSV augment	HSV augment primary fold	Insulin prom inh	Insulin prom inh cell count	RGS16-Gao HTS	GALR2 agonist	PKD1 inh
Cc1ccc(NC(=O)c2ccccn2)cc1S(=O)(=O)N1CCOCC1	i	0.92	-33	114	100	/	-2
CCc1cc(C(=O)O)c(NC(=O)C(c2ccccc2)c2ccccc2)s1	i	0.97	6	99	106	-0.8	-8
O=C(CCCOc1ccc(Cl)cc1Cl)NCc1ccncc1	i	1	/	/	100	/	-1
O=C1NC(c2ccco2)Nc2sc3c(c21)CCN(Cc1ccccc1)C3 (centres undefined)	i	1.2	/	/	99	16*	-7

The whole of this part, from the first entry:
SMILES	HSV augment	HSV augment primary fold	Insulin prom inh	Insulin prom inh cell count	RGS16-Gao HTS	GALR2 agonist	PKD1 inh
Cc1ccc(NC(=O)c2ccccn2)cc1S(=O)(=O)N1CCOCC1	i	0.92	-33	114	100	/	-2
CCc1cc(C(=O)O)c(NC(=O)C(c2ccccc2)c2ccccc2)s1	i	0.97	6	99	106	-0.8	-8
O=C(CCCOc1ccc(Cl)cc1Cl)NCc1ccncc1	i	1	/	/	100	/	-1
O=C1NC(c2ccco2)Nc2sc3c(c21)CCN(Cc1ccccc1)C3 (centres undefined)	i	1.2	/	/	99	16*	-7
Clc1ccccc1C1SCC2Nc3ccccc3CN21 (centres undefined)	i	0.98	-10	86	118	0.9	7
COCCCN(C(=S)NC(=O)c1ccc(C(C)(C)C)cc1)c1c(N)n(Cc2ccccc2)c(=O)[nH]c1=O	i	0.96	43	55	97	-1.8	-11
Cc1cccc(N(C(=O)Cn2nnc3ccccc32)C(C(=O)NCc2ccco2)c2ccncc2)c1C (centres undefined)	i	0.77	-9	116	95	-1.2	0
Cn1c(CNc2cccc(Cl)c2)nnc1SCC(=O)OC1CCCCC1	i	0.96	15	74	96	-0.4	-11
COCCCNC(=O)c1ccc2c(=O)n(Cc3ccc4c(c3)OCO4)c(=S)[nH]c2c1	i	0.86	18	160	105	-2.4	4
N#Cc1ccc(N2Cc3ccccc3/C2=N/C(=O)Nc2ccc(Cl)cc2)cc1	i	1	19	82	106	-1.4	-5
COc1ccc(NC(=O)c2cc3n(n2)C(C(F)(F)F)CC(c2ccc4c(c2)OCO4)N3)cc1OC (centres undefined)	/	/	/	/	120	-1.5	-8
Nc1nc(-c2ccc(F)cc2)cc(C(F)(F)F)n1	i	0.97	-17	99	102	1.0	6
COC(=O)Cc1c(O)ccn(CCc2ccc(OC)c(OC)c2)c1=O	i	1	54	113	102	/	2
COc1ccc(CC(CC(=O)O)C(=O)Nc2ccc(OC)cc2)cc1 (centres undefined)	i	0.9	/	/	103	-1.9	3
Nc1ccc(Nc2ccncc2[N+](=O)[O-])cc1	i	0.7	-6	43	102	-1.7	5
CC(C)(C)OC(=O)C(C)(C)Sc1nnc(N)s1	i	0.95	/	/	96	/	/
CCc1ccc(NC(=O)CN2C(=O)CSC2=O)cc1	i	0.88	44	87	81	-1.0	-16
CCOC(=O)c1c(C)[n+]([O-])c2ccc3c(non3O)c12	i	0.96	-74	131	110	/	-5
CN(CC(=O)NCc1ccc(Cl)cc1)S(=O)(=O)c1cccc2cccnc12	i	1	/	/	100	-2.2	11
CC1CCCCN1S(=O)(=O)c1ccc(C(=O)Nc2ccccc2-c2nc3ccccc3s2)cc1 (centres undefined)	/	/	-124	112	/	-0.6	-13
Cc1noc(C)c1CSCC(=O)N1CCN(c2ccc([N+](=O)[O-])cc2)CC1	i	1.1	23	79	99	-1.8	-6
Cc1ccc(-c2nc3ncccn3c2Nc2ccc3c(c2)OCO3)o1	i	0.98	0	38	89	-0.3	-4
COc1ccc(N2CC(C(=O)N/N=C/c3cc([N+](=O)[O-])ccc3O)CC2=O)cc1 (centres undefined)	i	1.1	17	85	101	/	-1
CCC(c1nnnn1Cc1ccc2c(c1)OCO2)N1CCN(CC)CC1 (centres undefined)	i	0.95	/	/	97	/	-1
Cc1ccc(C)c(-n2c(-c3ccc4c(c3)OCO4)n[nH]c2=S)c1	i	1	-22	68	-50	-0.8	10
O=C1C2C3C=CC(C3)C2C(=O)N1c1ccccc1OS(=O)(=O)c1ccccc1 (centres undefined)	i	1.1	-8	116	31	-0.1	3
CCOC(=O)C1(C)NC(c2cccs2)C2C(=O)N(c3ccccc3)C(=O)C21 (centres undefined)	i	0.95	-50	77	94	/	0
N#CCC(=N)N1CCN(c2ccccc2Cl)CC1	i	0.98	-177	147	106	-3.9	-7
CC(C)CC(=O)NNC(=O)c1ccc(Cl)cc1	i	0.91	/	/	108	/	0
COc1cc2c(cc1OC)C(c1ccc(Cl)cc1)=NCC2	i	0.95	/	/	100	/	/
CCC(=O)NCc1nc2ccccc2n1Cc1ccccc1F	i	0.76	/	/	103	-0.2	-3
COc1ccc(C(O)c2nccc3cc(OC)c(OC)cc23)cc1OC (centres undefined)	i	0.93	-50	120	102	/	12
Cc1nc2ccc(NC(=O)c3cncc(Br)c3)cc2s1	i	0.85	/	/	104	/	/
COc1ccc(CC(=O)Nc2cccc(-c3ccc4nnc(C)n4n3)c2)cc1OC	i	0.88	-25	170	101	/	-1
COc1ccccc1NC(=O)Cc1csc(NC(=O)c2ccccc2)n1	i	1	/	/	104	/	-1
N#Cc1c(C(F)(F)F)cc(-c2ccc(Cl)cc2)[nH]c1=O	i	0.79	/	/	99	1.8	-7
CCOC(=O)c1cc(CC)sc1NC(=O)C1CC(=O)NN1Cc1ccccc1 (centres undefined)	i	0.87	/	/	103	2.4	-17
CC(C)=CCCC(C)CN1CCC(N2CCC(C(=O)NC(C)C)CC2)CC1 (centres undefined)	i	0.87	/	/	54	/	13
COc1ccc(NC(=O)C2CC(=O)OC2c2ccccc2)cc1 (centres undefined)	i	1	45	77	24*	-0.8	-9
O=C(COc1ccccc1Cl)NCc1ccco1	i	0.93	74	190	95	-3.8	1
CC(=O)N1CCN(c2ccccc2NC(=O)COc2cc(C)ccc2C(C)C)CC1	i	0.92	-67	78	96	-1.2	-8
COc1ccc(N2CC(C(=O)OCC(=O)c3ccccc3)CC2=O)cc1 (centres undefined)	i	0.93	-43	82	99	-0.1	-12
Cc1nn2c(=O)c3c4c(sc3nc2n1-c1ccccc1)COC(C)(C)C4	i	0.93	/	/	97	/	/
CCCn1nnc(NC(=O)c2ccc(Br)cc2)n1	i	0.7	79*	164*	101	-2.6	3
COc1ccc2nc3ccccc3nc2c1NC(=O)c1ccc(Br)cc1	i	1	0	66	107	-2.4	0
Cc1cc(SCC(=O)NC(=O)c2cccn2C)nc2ccccc12	i	1	/	/	107	/	/
Cn1nc2sc3ccccc3n2c(=O)c1=O	i	1	/	/	94	/	/
N#Cc1cnn2c3c(cnc12)C(=O)N1CCc2ccccc2C1C3 (centres undefined)	i	0.87	35	153	114	/	0
CCOC(=O)c1sc2ncn(C(CC)C(=O)OC)c(=O)c2c1C (centres undefined)	i	0.7	/	/	100	-1.3	-4
CCOC(=O)N1CCN(C(=O)CN2C(=O)COc3ccc(C(C)(C)C)cc32)CC1	i	0.74	/	/	97	-1.5	-2
Cc1cccc(/C(N)=N/OC(=O)COc2ccccc2Cl)c1	/	/	-58	64	104	1.0	3
CCOc1ccc(C2CC(c3ccccc3)Nc3nc(N)nn32)cc1 (centres undefined)	i	0.91	/	/	107	-2.8	-7
CC(C)(C)NC(=O)/C(=C/c1cccnc1)NC(=O)c1ccco1	i	1	/	/	102	/	/
Cc1ccc(/C=N/NC(=O)c2ccoc2C)s1	i	1	5	97	103	-0.7	4
CCCCNCc1cc(Br)c(OCc2cccs2)c(OC)c1	i	0.78	-43	146	103	0.3	3
CCOC(=O)c1nc2ccccc2s1	i	0.91	/	/	111	-1.0	6
Cc1cccc(NC(=O)CN(c2ccc(F)cc2)S(C)(=O)=O)c1	i	0.87	/	/	96	/	-7
O=C(NCc1cccnc1)NC(C(F)(F)F)C(F)(F)F	i	0.98	47	91	102	-0.5	-7
CN1/C(=C\C=Nc2cc(S(=O)(=O)N3CCOCC3)ccc2N2CCOCC2)C(C)(C)c2ccccc21	i	1.5	/	/	93	-0.9	-8
CN(CC(=O)O)c1ccc(C(F)(F)F)cc1[N+](=O)[O-]	i	0.97	47	104	103	/	3

Next part:
SMILES	HSV augment	HSV augment primary fold	Insulin prom inh	Insulin prom inh cell count	RGS16-Gao HTS	GALR2 agonist	PKD1 inh
CCCCc1c(C)c2cc(C)ccc2[nH]c1=O	i	0.81	54	111	48	0.1	3
Cc1ccc(CNc2oc(-c3ccco3)nc2S(=O)(=O)c2ccccc2)cc1	i	1.1	-100	110	118	-1.1	0
O=C(CNS(=O)(=O)c1cccs1)N1CCCC1	i	1	/	/	93	-1.4	-4
CCOC(=O)CNC(=O)CSc1nnc(NC(=O)c2ccccc2Cl)s1	i	0.97	/	/	102	/	-4
COc1ccccc1CNc1nc2nc(C)c(C)c(=O)n2[nH]1	i	0.94	/	/	92	-2.1	-10
COc1cc2c(=O)n(CCCC(=O)NCC3CCCO3)c(=O)n(CC(=O)c3ccc(F)cc3)c2cc1OC (centres undefined)	i	0.87	/	/	98	/	-3
CCN(CC)c1ccc(C(=O)N/N=C/c2ccc(OC)cc2OC)cc1	i	0.82	/	/	102	/	-4
C=CCn1c(C)cc(C(=O)COC(=O)/C=C/c2ccc(OC)cc2)c1C	i	0.87	57	129	101	/	6
O=C(Nc1ccc(Cl)cc1)Nc1ccccc1Sc1ncc([N+](=O)[O-])s1	i	0.75	/	/	98	/	/
O=C(NCCCO)NC12CC3CC(CC(C3)C1)C2	i	0.9	40	71	69	-1.0	-1
O=C(CSc1ccc(-c2ccc(F)cc2)nn1)Nc1ccc2c(c1)OCCO2	i	0.9	/	/	95	-0.7	0
CCn1ccc2cc(OC)ccc2c1=S	i	1.2	3	128	101	-2.9	-12
c1ccc(-c2ccc(-c3nc(-c4ccccn4)no3)cc2)cc1	i	0.84	14	100	85	-2.2	2
Cc1ccc(NC(=O)C2CCCNC2=O)nc1 (centres undefined)	i	0.97	-69	129	108	-1.3	-3
COc1ccc(OCc2nc3c4c(ncn3n2)-c2ccccc2CC42CCCC2)cc1	i	1	/	/	95	-0.3	5
COc1ccc(C(=O)Nc2ccc(S(=O)(=O)N3CCCC3)cc2)cc1	i	1	/	/	97	/	-8
OC(COc1ccc(Cl)cc1)CN1CCCCC1 (centres undefined)	i	0.99	21	181	101	-1.1	-1
Cc1ccc(-c2ccc(CCC(=O)O)n2C(C)C)cc1	i	0.82	/	/	98	1.3	-12
COc1cc(C(=O)OC(C)CN2CCOCC2)cc(OC)c1OC (centres undefined)	i	0.98&1	19	136	107&100	-0.9	2
Cc1ccc(C)n1-c1ccc(C(=O)/C=C/N(C)C)cc1	i	0.96	/	/	93	/	0
O=C(c1cnc(N2CCN(c3ncccn3)CC2)c2ccccc12)N1CCN(c2ncccn2)CC1	/	/	/	/	114	-0.5	9
CN(C)c1nc(OCCNC(=O)COc2ccccc2Cl)nc(N(C)C)n1	i	0.92	-85	104	45	-1.8	-10
O=C(CSc1ccc(Cl)cc1)N1CCN(c2ccc(Cl)cc2[N+](=O)[O-])CC1	i	1.1	/	/	93	-2.4	5
COc1ccc(CC(=O)N2CCCC(C)C2)cc1 (centres undefined)	i	0.88	3	174	90	-2.9	-8
O=C1C(Cc2ccc(O)cc2)NC(=S)N1c1ccccc1 (centres undefined)	i	0.99	20	83	106	-1.4	-8
O=C(CSc1nc2c(c(=O)n1-c1ccc(Br)cc1)SCC2)NCC1CCCO1 (centres undefined)	i	0.98	-45	92	103	0.5	-2
COc1ccc2cc(CN(CC3CCCO3)S(=O)(=O)c3ccc(C(C)=O)cc3)c(=O)[nH]c2c1 (centres undefined)	i	0.87	/	/	101	-3.6	-6
O=C(/C=C/c1ccc(S(=O)(=O)N2CCOCC2)cc1)NCc1ccccc1Cl	i	0.93	52	109	106	-0.6	-4
Cc1ccc(NC(=O)C2CCN(S(=O)(=O)c3cccc4cccnc34)CC2)nc1	i	0.8	/	/	105	-0.3	-15
CCOc1cc(/C=C2\C(=O)N(c3nc(-c4ccc(Br)cc4)cs3)N=C2c2ccccc2)ccc1O	/	/	17	105	99	0.0	-1

Some entries already given, showing only Insulin prom inh cell count, HSV augment and GALR2 agonist.
SMILES	Insulin prom inh cell count	HSV augment	GALR2 agonist
COc1ccc(C(=O)Nc2ccc(S(=O)(=O)N3CCCC3)cc2)cc1	/	i	/
CN(C)c1nc(OCCNC(=O)COc2ccccc2Cl)nc(N(C)C)n1	104	i	-1.8

Random draw from the library; 1.3% or so of the library scored in one or more.
